Assay outcomes deposited in PubChem by National Center for Advancing Translational Sciences (NCATS).
TRPV1 potentiator: enhances activation of the human vanilloid receptor TRPV1; Q8NER1; TRPV1-expressing cells, Fluo-8 calcium influx, capsaicin EC20 potentiation; host cell line not named in the record; control for the full effect not named in the record; potentiation, % at 8.33 µM; 320,000 compounds, 0.02% hits; AID 540277; active means potentiation above 80%; inconclusive means 30% to 80%; inactive means below 30%; further: 0% is about no effect
Target sequence (Q8NER1 whole entry, looked up): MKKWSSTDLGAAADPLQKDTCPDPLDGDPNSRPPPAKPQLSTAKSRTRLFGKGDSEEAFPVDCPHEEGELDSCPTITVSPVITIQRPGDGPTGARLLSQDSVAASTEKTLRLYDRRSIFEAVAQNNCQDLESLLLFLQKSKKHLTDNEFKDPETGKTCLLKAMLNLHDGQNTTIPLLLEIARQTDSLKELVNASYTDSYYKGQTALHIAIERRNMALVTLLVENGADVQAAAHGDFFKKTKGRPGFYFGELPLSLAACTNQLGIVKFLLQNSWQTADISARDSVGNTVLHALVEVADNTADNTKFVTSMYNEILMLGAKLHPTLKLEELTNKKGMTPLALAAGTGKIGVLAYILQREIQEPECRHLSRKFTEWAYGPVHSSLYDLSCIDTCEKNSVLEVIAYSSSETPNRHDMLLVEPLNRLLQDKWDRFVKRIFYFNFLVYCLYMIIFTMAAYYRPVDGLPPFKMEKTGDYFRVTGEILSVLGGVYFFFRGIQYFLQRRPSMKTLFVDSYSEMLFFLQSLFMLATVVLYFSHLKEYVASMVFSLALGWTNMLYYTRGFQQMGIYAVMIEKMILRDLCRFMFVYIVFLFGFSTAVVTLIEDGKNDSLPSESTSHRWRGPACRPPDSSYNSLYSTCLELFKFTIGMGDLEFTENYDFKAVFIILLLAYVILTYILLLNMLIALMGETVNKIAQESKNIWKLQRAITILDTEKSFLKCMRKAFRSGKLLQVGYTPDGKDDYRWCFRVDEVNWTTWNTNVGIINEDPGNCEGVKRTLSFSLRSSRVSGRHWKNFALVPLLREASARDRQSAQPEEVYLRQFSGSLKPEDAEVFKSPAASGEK
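Cells expressing TRPV1 were dye-loaded with Fluo-8 and read kinetically: 10 s baseline, 3 min after compound (agonist portion), then 2 min after EC20 capsaicin (allosteric enhancer portion). Calcium-bound dye fluorescence at 480/520 nm.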
Sfp PPTase inh: Sfp phosphopantetheinyl transferase inhibition; Biochemical Sfp PPTase activity, qHTS; Potency, µM, without a hit: max response, negative = inhibition, most hits filed as inhibitors; 310,000 compounds, 3.5% hits; AID 1490; active means well fitted inhibition curve with a large enough effect; inconclusive means small, poorly fitted or top-dose-only effect, or another doubt; inactive means no such curve, though single readings can be large or run the other way;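 further: the enzyme is Sfp with the accession as filed and its product quenches rhodamine fluorescence; potency means the concentration at half of the fitted maximal effect; 0% = enzyme reaction without inhibitor and -100% = no enzyme wells; top concentration of the series not given in the record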
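Step 1, compound plus 15 nM Sfp-PPTase, 15 min, room temperature. Step 2, add rhodamine-CoA (5 uM) and BHQ-2-YbbR (12.5 uM). Step 3, read 525/598 nm fluorescence at 0 and 30 min.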
D2 PAM: positive allosteric modulators of human D2 dopamine receptor | 360,000 compounds, 0.23% hits | AID 624464 | potentiation, % (no concentration beside the values) | DiscoveRx D2 beta-arrestin cells, luminescence, 90 min; 100% = 57 uM dopamine signal; active = potentiation of 50% or more; inconclusive = 30% to 50%; inactive = 30% or less;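 further: compound concentration not given in the record; tested on top of an EC20 dose of dopamine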
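PathHunter beta-arrestin assay in DiscoveRx D2 cells. Compounds were added with an EC20 of dopamine (50 nM final) for 90 min at 37 deg C. Luminescence was read 1 h after detection reagent, with 57 uM dopamine as the EC100 control.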
Menin-MLL FL inh: displaces fluorescein MLL peptide from human menin; Fluorescence polarization, fluorescein-MLL peptide displacement from menin; FP activity change, % at 61.4 µM; 290,000 tested, under 10 active; inconclusive = falling polarisation curve, or a change in total fluorescence; inactive = total fluorescence flat and polarisation flat or rising; no compound was filed as active; the % refers to the polarisation; negative = inhibition;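 further: % of control where 0% means no effect; inhibitors lower the polarisation; unlabelled MLL peptide was the positive control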
gsp ag: agonists of gsp mutant (McCune-Albright syndrome). gsp mutant cells, cAMP HTRF, 30 min; control for the full effect not named in the record. Potency, µM (doses to about 76.9 µM), without a hit: at the top dose activation (cAMP increase), actives largely listed as activators. 340,000 compounds, 0.13% hits. AID 624287; active = well fitted activation curve with a large enough effect; inconclusive = small, poorly fitted or top-dose-only effect, or another doubt; inactive = no such curve, though single readings can be large or run the other way; cell line not stated here;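 further: phosphodiesterase inhibitor Ro 20-1724 added with compounds to block cAMP breakdown; potency means the concentration at half of the fitted maximal effect; nearly all actives have a fitted effect of over 60% in size; about a fifth of the inactives were tested at one dose only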
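Cells stably selected in G418 were plated at 2000/well, grown 16-24 hr, then given compounds in DMSO with the PDE inhibitor […] (300 uM solution added) for 30 min at 37C; cAMP was read by HTRF.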
ClpP mod: qHTS Assay for Activators of ClpP; purified B. subtilis ClpP, FRET peptide cleavage, 20 min; Potency, µM (doses to about 57.5 µM), inactives show at the highest dose activity change, negative = active; 340,000 compounds, 1.9% hits; AID 651965, 2013; active = well fitted falling curve with a large enough effect; inconclusive = small, poorly fitted or top-dose-only effect; inactive = no such curve, though single readings can be large or run the other way; further: potency means the concentration at half of the fitted maximal effect; the source files actives as falling curves though it sought activators and does not explain the sign; nearly all actives have a fitted effect of over 65% in size; many hits overshoot -100%
Target sequence (P80244 whole entry, looked up): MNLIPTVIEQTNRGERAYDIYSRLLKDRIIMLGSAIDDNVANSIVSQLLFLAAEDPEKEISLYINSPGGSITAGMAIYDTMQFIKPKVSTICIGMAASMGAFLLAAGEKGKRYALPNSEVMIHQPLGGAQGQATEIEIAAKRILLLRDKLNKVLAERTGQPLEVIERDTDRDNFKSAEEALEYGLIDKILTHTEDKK
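Purified B. subtilis ClpP, 10 microg/mL final in Tris/HCl pH8 with KCl, BSA, glycerol and Tween-20, cleaved an Abz/nitrotyrosine-quenched decapeptide. Fluorescence (ex 320, em 430) was read at 0 and 20 min at room temperature. Delta was normalized to 5.8 microM ADEP and DMSO/no-enzyme controls.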
gsp antagonist: gsp mutant antagonism. Potency, µM (series often up to 76.9 µM), for the others: top-dose activity change, negative = inhibition, actives largely listed as inhibitors. 340,000 compounds, 0.4% hits. gsp-mutant cells, cAMP HTRF, 30 min; control for the full effect not named in the record; active = falling curve of any shape with a large fitted effect; inconclusive = falling curve, mostly with a smaller effect; inactive = flat or rising curve; cell line not stated here;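 further: intracellular cAMP measured with PDE inhibitor Ro 20-1724 present during compound exposure; potency means the concentration at half of the fitted maximal effect; on the % scale 0 is the no-effect control and ±100 the full control effect; nearly all actives have a fitted effect of over 65% in size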
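Cells, 2000/well, grown 16–24 h in DMEM 10% FBS with 0.5 mg/ml G418, then compounds plus […] (300 uM addition stock), 30 min at 37C. cAMP read by HTRF (cAMP-d2 and anti-cAMP antibody-K in lysis buffer) after 30 min RT.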
* hit, by the source's call; u = inconclusive; x = no result given; [ ] = dose if it differs, or a comment.

SMILES	TRPV1 potentiator	Sfp PPTase inh	D2 PAM	Menin-MLL FL inh	gsp ag	ClpP mod	gsp antagonist
O=c1cc[nH]c2cc(Cl)ccc12	-13	25%	1	5.2	14%	-4.9%	2%
CCOC(=O)COc1cccc(C2NC(=O)c3ccccc3O2)c1 (stereo not given)	4	5%	-1	-3.9	21%	-30%	-3%
COc1ccc(C2/C(=C(/O)c3ccccc3)C(=O)C(=O)N2c2ncccn2)cc1OC (stereo not given)	-3	-2%	-4	1.6	9%[15.4 µM]	-2.1%	6%
CC1=C(C(=O)Nc2ccccc2)C(c2sccc2C)n2nnnc2N1 (stereo not given)	30	3%	x	9.0	x	x	x
COc1ccc(Cl)cc1NC(=O)C/C(C)=N/NC(=O)Cc1ccccc1	-1	10%	-15	0.8	-5%[15.4 µM]	x	4%
C=CCn1c(SCCOc2ccc(OC)cc2)nnc1C(NC(=O)c1ccc(OC)cc1)C(C)C (stereo not given)	8	23%	-3	0.1	-2%	-0.7%	-3%
CCCCC(=O)Nc1cccc(-c2nn3c(C)nnc3s2)c1	-2	16%	1	0.5	-39%[inhibitor]	-14%	8%
COc1ccccc1CC(=O)NN1C(=O)c2ccccc2C1=O	5	11%	-5	3.7	-1%	-23%	3%
Cc1cccc(OCCSc2nc3ccccc3n2CCC(=O)O)c1	3	19%	8	-5.7	-4%	1.3%	u
CCN(Cc1ccccc1)C(=O)COC(=O)CNS(=O)(=O)c1ccc(C)cc1	10	-4%	-8	0.0	0%	0.9%	-13%
CC1CCCCC1NC(=O)CCS(=O)(=O)c1ccc2c(c1)NC(=O)CO2 (stereo not given)	-5	6%	-2	-1.2	-48%[inhibitor]	0.2%	-6%
O=C(CN(C(=O)c1ccc(Cl)cc1)C1CCCCC1)Nc1ccc(Cl)c([N+](=O)[O-])c1	7	16%	-40	5.7	-1%[15.4 µM]	1.7%	-14%
N#CC1=C(N)OC2=C(C(=O)CCC2)C1C1C=CCCC1 (stereo not given)	-6	21%	-6	4.6	4%	-0.8%	2%
S=C(NCCCN1CCOCC1)Nc1ccc(Cl)cc1Cl	-5	-16%	-39	4.8	25%	-13%	11%
CCCCC(=O)c1ccc(O)cc1O	x	x	-7	x	1%	0.1%	10%

Brought forward from above: 4 compounds, followed by the next part.
SMILES	TRPV1 potentiator	Sfp PPTase inh	D2 PAM	Menin-MLL FL inh	gsp ag	ClpP mod	gsp antagonist
O=C(CN(C(=O)c1ccc(Cl)cc1)C1CCCCC1)Nc1ccc(Cl)c([N+](=O)[O-])c1	7	16%	-40	5.7	-1%[15.4 µM]	1.7%	-14%
N#CC1=C(N)OC2=C(C(=O)CCC2)C1C1C=CCCC1 (stereo not given)	-6	21%	-6	4.6	4%	-0.8%	2%
S=C(NCCCN1CCOCC1)Nc1ccc(Cl)cc1Cl	-5	-16%	-39	4.8	25%	-13%	11%
CCCCC(=O)c1ccc(O)cc1O	x	x	-7	x	1%	0.1%	10%
CN=C1CC(SC)=C1c1ccc(C)cc1	-1	19%	1	2.9	3%	-1.3%	-4%
Cc1cc(C)cc(OCc2nnc(SCC(=O)Nc3ccccc3)o2)c1	9	14%	-3	2.3	-16%	0.0%	6%
COc1ccc(N2C(=O)C3C4C=CC(C5CC45)C3C2=O)c([N+](=O)[O-])c1 (stereo not given)	13	13%	-19	2.2	-11%	-1.3%	8%
CCc1cc2c(=O)c(-c3cnn(-c4ccccc4)c3)coc2c(CN2CCOCC2)c1O	2	-11%	-6	1.2	-41%[inhibitor]	u	-15%
Cc1nc(NCCc2ccc(S(N)(=O)=O)cc2)c2c(C)c(C)sc2n1	2	-5%	17	2.4	u	-1.0%	u
O=C(N/N=C/c1ccc(N2CCOCC2)cc1)C1CC1	5	21%	-7	-2.2	u	x	-6%
COc1ccc(C(Nc2ccccn2)c2oc(CO)cc(=O)c2O)cc1 (stereo not given)	-1	u	-18	6.0	9%	1.6%	-1%
O=C(Nc1ccc(SC(F)F)cc1)C12CCC(CC1)C2	-1	0%	-4	1.3	2%	x	-11%
CC1(C)CC2CC(C)(CN2C(=O)CCCN2C(=O)c3ccccc3C2=O)C1 (stereo not given)	-13	-8%	-12	1.7	-15%	1.4%	2%
CCN(CCCNC(=O)CSc1cc(=O)n(C)c2cc(Cl)ccc12)Cc1ccccc1	-10	u	-6	-4.0	u	x	-9%
O=C(Nc1ccn(-c2ccccc2)n1)c1ccc(Cl)cc1	-18	3%	-30	9.3	2%	-3.6%	-17%
Cc1ccc(C(=O)NCc2ccncc2)cc1S(=O)(=O)Nc1cccc(C)c1C	7	4%	0	x	25%	-0.7%	11%
CC(OC(=O)c1n[nH]c2ccccc12)C(=O)Nc1ccccc1[N+](=O)[O-] (stereo not given)	-3	x	9	x	-2%	3.4%	0%
O=C(O)/C=C\C(=O)N1CCc2ccccc21	0	5%	2	-1.3	-32%[inhibitor]	-1.1%	-10%
NS(=O)(=O)c1ccc(CCNC(=O)/C=C/c2ccc([N+](=O)[O-])cc2)cc1	0	6%	13	-0.5	2%[15.4 µM]	x	x
COc1cccc(-c2onc3ccc(C4(C)OCCO4)cc23)c1	5	-5%	25	0.0	u	x	-11%
O=C(CC1Sc2ccccc2NC1=O)Nc1cccc(C(=O)O)c1 (stereo not given)	10	-23%	0	3.1	-12%	-0.3%	1%
Cc1ccc(NC(=O)Cn2nc(C)c(S(=O)(=O)N(C)C)c2C)cc1	-1	8%	-12	-0.5	17%	1.3%	3%
CCOC(=O)c1ccc(NC(=O)CN(Cc2ccc(Cl)cc2)S(C)(=O)=O)cc1	6	6%	-7	-0.9	2%	-2.1%	u
CC(C#N)(NC(=O)COC(=O)c1ccccc1NCCO)C1CC1 (stereo not given)	-6	x	6	x	-3%	25µM*	7%
CCC(=O)c1ccc(OCC(=O)N2CCN(c3ncccn3)CC2)cc1	11	x	-7	x	5%	-12%	-2%
N/C(=N\c1nc2c(c(=O)[nH]1)CCCC2)Nc1ccccc1	0	0%	11	2.4	-15%	-2.1%	6%
Cc1[nH]c2ccccc2c1C(=O)/C=C/c1ccccc1Cl	-2	-17%	10	1.4	2%	0.7%	21%
CC1(C)CC(=O)C=C(Nc2cc(-c3ccccc3)[nH]n2)C1	6	4%	-14	1.4	-28%	-1.1%	8%
Cc1ccccc1C(=O)NC1CCN(Cc2nnnn2Cc2ccc(F)cc2)CC1	-1	-7%	-21	2.6	30%	-0.1%	-4%
Cc1nc(-c2cccc(S(=O)(=O)N3CCCC(C)C3)c2)cs1 (stereo not given)	-11	-7%	9	4.1	-79%[inhibitor]	0.4%	-9%
CCC(Cc1ccccc1)NS(=O)(=O)c1c(C)nc2sccn2c1=O (stereo not given)	-6	12%	-4	0.7	18%	3.8%	0%
O=C1CC(c2ccco2)CC(O)=C1C=NCCN1CCN(C(=S)Nc2ccccc2)CC1 (stereo not given)	12	8%	-8	2.1	-23%[15.4 µM]	-0.2%	-2%
O=C(NCc1ccccc1)c1nc(-c2cccs2)no1	-11	12%	-1	1.1	10%[15.4 µM]	x	-8%
O=C(CSC1=Nc2ccccc2C2=NC(CC(=O)N3CCN(c4ccccc4)CC3)C(=O)N12)NCC1CCCO1 (stereo not given)	-1	-6%	-6	u	u	-20%	-2%
O=C(CC1Nc2c3ccccc3nc(=S)n2C1=O)NC1CCCCC1 (stereo not given)	-7	-8%	x	-6.9	x	x	x
CCCn1c(=O)c2sccc2n2c(CCCC(=O)NCc3ccco3)nnc12	2	-3%	-3	x	-5%	-14%	-1%
CCn1c(SCC(=O)NC2CC2)nnc1-c1ccccc1OC	18	5%	0	0.1	-3%	1.3%	8%
NNC(=O)c1ccc(NS(=O)(=O)c2ccc(Br)cc2)cc1	-7	12%	x	2.7	x	x	x
O=C(COc1ccc(/C=N/NS(=O)(=O)c2ccccc2)cc1)NCc1ccccc1	3	0%	9	2.1	-14%	-1.3%	0%
O=[N+]([O-])c1ccc2oc(-c3cccc(O)c3)nc2c1	6	-4%	6	-3.4	22%[15.4 µM]	0.6%	-6%
CSc1cccc(NC(=O)CSc2nnc(C)s2)c1	11	4%	-4	3.7	u	-1.6%	3%
Cc1cc(Nc2n[nH]c(N)c2C#N)ccc1F	5	7%	0	-2.4	2%	1.0%	0%
CCCCNC(=O)Oc1cc(CCl)on1	2	4%	x	-0.3	x	x	x
CC1=C(C(=O)NC(C)c2ccccc2)C2(CCC(C)CC2)OC1=O (stereo not given)	22	24%	-4	4.3	-22%	-0.3%	-3%
O=C(Cc1cc(=O)[nH]c(=O)[nH]1)N1CCC(Cc2ccccc2)CC1	3	11%	-8	2.5	-20%	-3.0%	4%
Cc1cc(Cl)c2oc(C(=O)N3CCOCC3)c(C)c2c1	x	x	-7	x	-41%[inhibitor]	-0.8%	x
COc1ccc(-n2ncc3c(NCc4cccs4)ncnc32)cc1	-8	4%	14	0.4	39%	u	-1%
CN(CCc1ccccn1)C1CCCN(S(=O)(=O)c2ccccc2Cl)C1 (stereo not given)	-10	9%	-26	1.4	-11%	-2.8%	6%
CSc1ccc(/C=C/C(=O)OCC(=O)NC2CCCC2)cc1	x	x	-11	x	-60%[inhibitor]	4.0%	x
Clc1ccccc1Sc1cnc2ccccc2n1	-11	7%	-9	1.6	u	0.7%	28%
N#CCC(CNc1ncc(C(F)(F)F)cc1Cl)OC(=O)c1c(F)cccc1F (stereo not given)	x	x	-9	x	-54%[inhibitor]	-0.2%	-9%
O=C1CCCC2=C1C(c1ccc(O)c(O)c1)c1c(ccc3ncccc13)N2 (stereo not given)	11	7.9µM*	5	10	-5%[15.4 µM]	x	-13%
O=C(COC(=O)c1ncc(Cl)c(Cl)c1Cl)Nc1cccnc1Cl	20	x	-31	x	0%[15.4 µM]	-1.8%	-6%
O=C(CCc1nnc(CCCc2ccccc2)o1)N1CCCCCC1	0	16%	-4	-2.7	-4%	1.3%	-6%
CC(C)(C)N(Cc1ccccc1)C(=O)c1ccc(Cl)cc1[N+](=O)[O-]	-2	-1%	-5	0.1	-19%[15.4 µM]	x	-21%
